DUX4 txn inh: blocks DUX4-driven transcriptional activation | AID 1224904 | 37,000 compounds, 0.8% hits | activity change, negative = inhibition, % (concentration not given with the values) | 293T-iDUX4 ZSCAN4-Gaussia luciferase reporter, 24 h; stronger effect = lower value;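 active means -10% or lower and over 25 points stronger than a control reporter; inconclusive means -10% or lower with a smaller gap; inactive means above -10%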;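 further: 0% = median of neutral control wells and -100% = median of positive control wells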
DUX4 txn inh difference: further read-out of DUX4 txn inh, marked with its call; Gaussia minus Italica difference, %; measured here: selective DUX4 reporter inhibition;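 worked out from the two reporters; negative = selective loss of the DUX4 reporter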
DUX4 txn inh control: second read-out of DUX4 txn inh, no call of its own (marks repeat the call); activity change, negative = inhibition, %; measured here: Italica tet-on control reporter;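 0 = neutral control and -100 = positive control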
Numbers without * were called inactive; ? = inconclusive; . = not tested or not shown; & = joins results of further samples. Only part of the results is shown; the hit share may differ from the screen's.

Below each SMILES – DUX4 txn inh	DUX4 txn inh difference	DUX4 txn inh control
1	N#Cc1ccc(-c2ccc3c(c2)[C@@H]2[C@@H](CCN2C(=O)c2ccccc2F)[C@H](CO)N3)cc1
  -8.6	-4.9	-3.7
2	COc1ccccc1-c1ccc2c(c1)[C@@H]1[C@@H](CCN1C(=O)C1CCOCC1)[C@H](CO)N2
  16.6	8.6	8.0
3	CN1c2ccc(-c3ccccc3F)cc2[C@@H]2[C@@H](CCN2C(=O)CN2CCOCC2)[C@H]1CO
  0.9	-9.0	9.9
4	C[C@@H]1CCCCO[C@H](CN(C)S(=O)(=O)c2ccc(Cl)cc2)[C@H](C)CN([C@@H](C)CO)C(=O)c2cc(NC(=O)Nc3ccc(C(F)(F)F)cc3)ccc2O1
  5.6	0.1	5.5
5	COCC#Cc1ccc([C@H]2[C@H](CO)N3CCCCN(C(=O)Nc4cc(F)ccc4F)C[C@@H]23)cc1
  2.2	-1.9	4.0
6	C[C@@H]1CCCCO[C@@H](CN(C)S(=O)(=O)c2ccccc2)[C@@H](C)CN([C@H](C)CO)C(=O)c2cc(NC(=O)CCC(F)(F)F)ccc2O1
  -4.3	-5.4	1.1
7	O=C(C[C@H]1C[C@@H]2c3cc(NC(=O)C4CCOCC4)ccc3O[C@@H]2[C@H](CO)O1)NCCN1CCCCC1
  5.0	-1.0	6.0
8	COc1ccc(CNC(=O)C[C@@H]2CC[C@@H]3[C@H](COc4ccc(NC(=O)C5CC5)cc4C(=O)N3C)O2)cc1
  -0.2	0.8	-1.0
9	O=C(Nc1ccccc1F)N1CC(=O)N2[C@@H](CO)[C@@H](c3ccc(-c4ccc(F)cc4)cc3)[C@@H]2C1
  -4.6	4.6	-9.2
10	O=C(c1cnccn1)N1CC[C@H]2[C@H](CO)Nc3ccc(-c4ccccc4)cc3[C@H]21
  3.0	1.7	1.3
11	CO[C@H]1CN(C)C(=O)c2cc(NC(=O)CC(F)(F)F)ccc2OC[C@@H](C)N(CC2CC2)C[C@@H]1C
  0.1	-1.5	1.7
12	COc1ccc(CN(C)C[C@H]2OCc3cn(nn3)CCCC(=O)N([C@@H](C)CO)C[C@@H]2C)cc1
  1.3	0.3	1.0
13	CN(C)CC#Cc1ccc([C@H]2[C@@H](CO)N3CCCCN(S(=O)(=O)c4ccccc4)C[C@@H]23)cc1
  -0.2	-3.5	3.3
14	CN(C[C@@H]1N[C@H](CO)[C@H]1c1ccccc1)C(=O)c1ccccn1
  0.0	-2.4	2.4
15	CCCC(=O)Nc1ccc2c(c1)C(=O)N(C)C[C@H](OC)[C@H](C)CN(C(=O)c1ccccn1)[C@H](C)CO2
  2.6	3.5	-0.9
16	CN1CCN(C(=O)C[C@H]2C[C@H]3c4cc(NC(=O)Nc5ccc(C(F)(F)F)cc5)ccc4O[C@H]3[C@@H](CO)O2)CC1
  -5.4	-3.0	-2.4
17	CCC(=O)N(CC)C[C@@H]1[C@@H](c2ccc(-c3ccccc3)cc2)[C@H](CO)N1C(C)=O
  7.8	0.6	7.2
18	C/C=C/c1ccc(C2[C@@H]3CN(C(=O)c4ccc5c(c4)OCO5)C[C@H]2N3)cc1 (stereo partly specified)
  5.9&-3.3	2.4&-16.0	3.5&12.8
19	CO[C@@H](C(=O)N(C)C[C@H]1OCc2ccccc2-c2ccccc2C(=O)N([C@H](C)CO)C[C@@H]1C)c1ccccc1
  5.2	-9.7	14.8
20	O=C(C[C@H]1C[C@@H]2c3cc(NC(=O)C4CCC4)ccc3O[C@@H]2[C@@H](CO)O1)NCCc1ccccc1
  -4.3	0.1	-4.4
21	C[C@H](NC(=O)[C@H]1[C@H](CO)[C@H]2Cn3c(ccc(-c4ccccc4F)c3=O)[C@@H]1N2)c1ccccc1
  4.8	6.0	-1.2
22	O=C(C[C@H]1CC[C@H]2[C@@H](COC[C@H](O)CN2Cc2cc(F)ccc2F)O1)N[C@H]1CCN(Cc2ccccc2)C1
  -5.9	-3.0	-2.9
23	COc1ccc(C(=O)Nc2ccc3c(c2)OC[C@@H](C)NC[C@H](C)[C@H](OC)CN(C)C3=O)cc1
  -5.9	0.0	-5.9
24	CCCNC(=O)N1C[C@H](O)COC[C@@H]2O[C@H](CC(=O)N[C@H]3CCN(Cc4ccccc4)C3)CC[C@H]21
  0.9	0.3	0.5
25	CO[C@@H]1CN(C)C(=O)c2ccc(NC(=O)c3ccc(F)cc3)cc2OC[C@H](C)N(C(=O)CN(C)C)C[C@H]1C
  1.8	-3.1	4.9
26	N#C[C@H]1[C@@H](c2ccc(C3=CCCCC3)cc2)[C@@H](CO)N1C(=O)CN1CCOCC1
  -1.8	-3.6	1.8
27	N#C[C@@H]1[C@@H](c2ccccc2C2=CCCCC2)[C@H](CO)N1C(=O)C1CCOCC1
  14.1	21.6	-7.6
28	O=C(C[C@H]1CC[C@@H]2[C@H](COC[C@@H](O)CN2CC2CCOCC2)O1)NCC1CCCCC1
  8.4	5.6	2.8
29	C[C@@H]1CN([C@H](C)CO)C(=O)c2cccc(N(C)C)c2O[C@@H]1CN(C)Cc1ccncc1
  -1.2	-3.5	2.4
30	O=C(c1ccc(F)cc1)N1C[C@@H]2[C@H](c3ccccc31)[C@H](CO)N2C(=O)c1ccc(F)cc1
  -6.3	-3.2	-3.0

2 compounds from above, limited to DUX4 txn inh difference:
nr	smiles	DUX4 txn inh difference
25	CO[C@@H]1CN(C)C(=O)c2ccc(NC(=O)c3ccc(F)cc3)cc2OC[C@H](C)N(C(=O)CN(C)C)C[C@H]1C	-3.1
28	O=C(C[C@H]1CC[C@@H]2[C@H](COC[C@@H](O)CN2CC2CCOCC2)O1)NCC1CCCCC1	5.6

Entries of single compounds, looked up by structure. Order of values: DUX4 txn inh, DUX4 txn inh difference, DUX4 txn inh control
Profile of C/C=C/c1ccc(C2[C@@H]3CN(C(=O)c4ccc5c(c4)OCO5)C[C@H]2N3)cc1 (stereo partly specified) = 5.9&-3.3, 2.4&-16.0, 3.5&12.8
Profile of O=C(C[C@H]1CC[C@@H]2[C@H](COC[C@@H](O)CN2CC2CCOCC2)O1)NCC1CCCCC1 = 8.4, 5.6, 2.8
Profile of N#C[C@H]1[C@@H](c2ccc(C3=CCCCC3)cc2)[C@@H](CO)N1C(=O)CN1CCOCC1 = -1.8, -3.6, 1.8
Profile of CN(C[C@@H]1N[C@H](CO)[C@H]1c1ccccc1)C(=O)c1ccccn1 = 0.0, -2.4, 2.4

Reformatted: entries from further up
#23 COc1ccc(C(=O)Nc2ccc3c(c2)OC[C@@H](C)NC[C@H](C)[C@H](OC)CN(C)C3=O)cc1
#18 C/C=C/c1ccc(C2[C@@H]3CN(C(=O)c4ccc5c(c4)OCO5)C[C@H]2N3)cc1 (stereo partly specified)
#8 COc1ccc(CNC(=O)C[C@@H]2CC[C@@H]3[C@H](COc4ccc(NC(=O)C5CC5)cc4C(=O)N3C)O2)cc1
#30 O=C(c1ccc(F)cc1)N1C[C@@H]2[C@H](c3ccccc31)[C@H](CO)N2C(=O)c1ccc(F)cc1
#17 CCC(=O)N(CC)C[C@@H]1[C@@H](c2ccc(-c3ccccc3)cc2)[C@H](CO)N1C(C)=O

Screen / compound no.	23	18	8	30	17
DUX4 txn inh	-5.9	5.9&-3.3	-0.2	-6.3	7.8
DUX4 txn inh difference	0.0	2.4&-16.0	0.8	-3.2	0.6
DUX4 txn inh control	-5.9	3.5&12.8	-1.0	-3.0	7.2

(listing goes on)
Below each SMILES – DUX4 txn inh	DUX4 txn inh difference	DUX4 txn inh control
31	O=C(Cc1ccccn1)N1CC(=O)N2[C@@H](CO)[C@@H](c3ccc(-c4ccc(F)cc4)cc3)[C@@H]2C1
  9.2	5.9	3.2
32	CCNC(=O)[C@@H]1[C@@H](CO)[C@@H]2Cn3c(ccc(-c4cccc(F)c4)c3=O)[C@@H]2N1Cc1nccs1
  3.0	2.4	0.7
33	CNC[C@@H]1Oc2c(NC(=O)C3CCOCC3)cccc2C(=O)N([C@H](C)CO)C[C@H]1C
  2.6	0.0	2.6
34	COCc1cn(CC[C@H]2CC[C@@H](NC(=O)c3ccc(F)cc3)[C@H](CO)O2)nn1
  1.9	-1.3	3.3
35	C[C@H]1CN([C@@H](C)CO)C(=O)c2ccccc2-c2ccccc2CO[C@H]1CN(C)C(=O)[C@H]1CCCN1C
  1.5	-2.4	3.9
36	O=C(C[C@H]1C[C@@H]2c3cc(NS(=O)(=O)c4ccc(F)cc4)ccc3O[C@@H]2[C@H](CO)O1)NCCN1CCCCC1
  5.5	8.5	-3.0
37	CCCC#Cc1ccc([C@@H]2[C@H](CO)N3C(=O)CN(C(=O)c4ccc(F)cc4)C[C@@H]23)cc1
  -0.3	-2.1	1.8
38	CS(=O)(=O)N1[C@@H]2c3ccc(C4=CCCC4)c(=O)n3C[C@@H]2[C@@H](CO)[C@@H]1C(=O)NCCc1ccncc1
  -1.1	1.1	-2.2
39	CCC(=O)N1[C@H](CNC(=O)COC)[C@H](c2ccc(-c3ccccc3)cc2)[C@@H]1CO
  -1.4	0.2	-1.6
40	C[C@@H]1CN([C@H](C)CO)C(=O)c2cc(-c3cccc(F)c3)cnc2O[C@H]1CN(C)Cc1ccccn1
  2.8	-2.6	5.4
41	CCCNC(=O)N[C@@H]1CC[C@@H](CC(=O)N2CCN(C)CC2)O[C@H]1CO
  8.2	2.1	6.2
42	O=C(c1cccnc1)N1CC2(C1)[C@H](c1ccccc1)[C@@H](CO)N2Cc1ccc(Cl)cc1
  -7.1	-13.7	6.6
43	COc1cccc(S(=O)(=O)N(C)C[C@@H]2OCc3cn(nn3)CCCC(=O)N([C@@H](C)CO)C[C@@H]2C)c1
  2.1	0.3	1.8
44	C/C=C/c1ccc([C@H]2[C@@H](CO)N3C(=O)CN(S(=O)(=O)c4cccc(F)c4)C[C@@H]23)cc1
  18.4	4.3	14.1
45	C[C@H](CO)N1C[C@H](C)[C@H](CN(C)Cc2ccc(Cl)c(Cl)c2)Oc2ccc(NC(=O)Nc3cccc4ccccc34)cc2C1=O
  -3.4	-3.6	0.2
46	Cc1cccc(S(=O)(=O)N2[C@@H]3Cn4c(cccc4=O)[C@H]2[C@@H](C(=O)NC2CCC2)[C@@H]3CO)c1
  -1.9	-3.6	1.7
47	CC(C)NC(=O)N1[C@H](CO)[C@@H]2c3ccccc3N(C(=O)Nc3ccc(Cl)cc3)C[C@@H]21
  -4.4	-1.0	-3.4
48	CCCC#Cc1ccc([C@@H]2[C@H](CO)N3C(=O)CN(C(=O)NC4CCCC4)C[C@@H]23)cc1
  ?	.	.
49	CCC(=O)N1[C@@H]2Cn3c(ccc(-c4ccccc4)c3=O)[C@H]1[C@@H](C(=O)N1CCCCC1)[C@@H]2CO
  14.9	3.9	10.9
50	C[C@H](CO)N1C[C@H](C)[C@@H](CN(C)C(=O)Nc2ccc(F)cc2)OCc2cnnn2CCCC1=O
  -1.2	-1.0	-0.2
51	CCS(=O)(=O)Nc1ccc2c(c1)C(=O)N(C)[C@H]1CC[C@@H](CC(=O)OC)O[C@H]1CO2
  1.6	0.9	0.7
52	C[C@H](NC(=O)C[C@H]1C[C@@H]2c3cc(NC(=O)Nc4ccc(C(F)(F)F)cc4)ccc3O[C@@H]2[C@@H](CO)O1)c1ccccc1
  -1.7	-1.6	-0.2
53	COc1ccc2c3c([nH]c2c1)[C@@H](CO)N(C(=O)Nc1ccc(F)cc1)CC31CCN(C(=O)Nc2ccc3c(c2)OCO3)CC1
  -4.6	-8.1	3.5
54	N#C[C@H]1[C@H](c2ccc(C#CC3CCCCC3)cc2)[C@H](CO)N1C(=O)Nc1ccc(F)cc1
  1.1	-0.3	1.4
55	CCCC#Cc1ccc([C@@H]2[C@@H](CO)N3C(=O)CN(C(=O)c4ccncc4)C[C@@H]23)cc1
  3.3	-5.2	8.5
56	COc1ccccc1NC(=O)N1CC(=O)N2[C@H](CO)[C@H](c3ccc(C#CCC(C)C)cc3)[C@@H]2C1
  6.5	12.5	-6.0
57	O=C(c1ccccc1)N1CC(=O)N2[C@H](CO)[C@H](c3ccc(/C=C/c4ccccc4)cc3)[C@H]2C1
  ?	.	.
58	CCC(=O)N1CC2(C1)CN(C(=O)Nc1ccccc1F)[C@@H](CO)c1[nH]c3cc(OC)ccc3c12
  12.8	-10.9	23.7
59	Cc1cccc(-c2ccc([C@H]3[C@H](CO)N4C(=O)CN(S(=O)(=O)c5cccc(F)c5)C[C@@H]34)cc2)c1
  -0.5	-10.4	9.9
60	COc1ccc(-c2ccc3c(c2)[C@@H]2[C@@H](CCN2C(=O)c2cccc(F)c2)[C@@H](CO)N3)cc1
  ?	.	.
61	C[C@@H]1CN([C@H](C)CO)C(=O)c2c(c3ccccc3n2C)-c2ccccc2CO[C@@H]1CN(C)Cc1ccc(Oc2ccccc2)cc1
  -1.0	-3.1	2.1
62	O=C(Nc1cccc(Cl)c1)N[C@H]1CC[C@@H](CCn2cc(Cc3ccccc3)nn2)O[C@H]1CO
  ?	.	.
